Bioassay records (PubChem BioAssay)
Mtb H37Rv: M. tuberculosis H37Rv growth inhibitors, H37Rv strain (AID 1626). M. tuberculosis H37Rv growth inhibition; higher % means a stronger effect. 0.95% of 220,000 active. inhibition, % at 10 µM, or IC50 in µM where a hit was titrated;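 active = confirmed in a dose series; inconclusive = inhibition above 80% but not taken into the dose series; inactive = below 80% or under 30% at every dose of the series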;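 also: bacteria incubated seven days before Alamar blue readout; 0% = bacteria only wells and 100% = bacteria with antibiotic wells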
RecA splice inh: Mtb RecA intein splicing inhibitors, primary screen, biochemical, fluorescence, HTS | Protein RecA (Mycobacterium tuberculosis (strain ATCC 25618 / H37Rv)), P9WHJ3 | cell-free RecA intein splicing | inhibition, %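 (about 9 µM by stock and volumes)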 | 0.75% of 290,000 active; in the data active = inhibition above about 30%; inconclusive = no clear call, values can overlap the other calls;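 also: 0% = vehicle wells and 100% = reference inhibitor control wells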
Target sequence (P9WHJ3 whole entry, looked up, canonical isoform): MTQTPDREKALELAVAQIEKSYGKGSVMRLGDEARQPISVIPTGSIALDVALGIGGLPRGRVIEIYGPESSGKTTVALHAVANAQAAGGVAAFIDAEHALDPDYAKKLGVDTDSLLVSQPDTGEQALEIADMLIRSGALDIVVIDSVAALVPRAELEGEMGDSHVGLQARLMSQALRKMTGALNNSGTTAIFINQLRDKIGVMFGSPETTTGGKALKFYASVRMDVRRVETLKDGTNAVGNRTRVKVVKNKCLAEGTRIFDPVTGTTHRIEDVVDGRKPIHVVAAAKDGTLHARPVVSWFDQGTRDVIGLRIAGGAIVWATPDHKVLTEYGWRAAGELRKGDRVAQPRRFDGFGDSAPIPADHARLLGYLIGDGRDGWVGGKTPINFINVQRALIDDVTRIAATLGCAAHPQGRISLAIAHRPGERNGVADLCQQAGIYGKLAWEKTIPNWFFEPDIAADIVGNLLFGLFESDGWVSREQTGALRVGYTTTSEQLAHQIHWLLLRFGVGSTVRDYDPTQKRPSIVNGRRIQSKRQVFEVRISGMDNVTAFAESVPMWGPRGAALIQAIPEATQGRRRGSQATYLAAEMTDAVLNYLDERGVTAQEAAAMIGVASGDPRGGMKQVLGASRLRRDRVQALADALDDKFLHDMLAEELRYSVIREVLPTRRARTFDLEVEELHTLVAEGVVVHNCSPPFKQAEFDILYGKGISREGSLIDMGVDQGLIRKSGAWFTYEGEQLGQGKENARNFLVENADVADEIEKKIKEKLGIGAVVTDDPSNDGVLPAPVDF
Arbovirus anti: antivirals against arbovirus infection, primary screen, cell-based, full library, 10K replicate subset; arbovirus infection cell-based antiviral screen; inhibition, % at 10 µM; 0.37% of 200,000 active;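 active = inhibition from about 30%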;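 also: bluetongue infection of BSR cells; cell survival read as ATP light after 72 h; 0% = infected wells without compound and 100% = uninfected wells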
YopH PTP inh: YopH tyrosine phosphatase inhibitors, primary screen, biochemical, fluorescence Ex485/Em525; 0.16% of 140,000 active; inhibition, %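 (about 10 µM by stock and volumes)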; YopH tyrosine phosphatase [Yersinia enterocolitica]; AID 898, 2007;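 active = inhibition of 50% or more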;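 also: controls were vehicle for no effect and minimum signal wells for full effect; inactives centre near -20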
Mtb bLac sens: beta-lactam sensitization of Mtb H37Rv, H37Rv; 0.27% of 330,000 active; inhibition, % at 25 µM; M. tuberculosis H37Rv growth with meropenem, percent inhibition; hits of this screen are not shown here;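 active = about 74% or more and at least 40 points above the plate without the antibiotic, then above 30% in a dose series; inconclusive = first-round hits that could not be retested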;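 also: growth measured after seven days incubation then overnight dye step; 0% = bacteria only wells and 100% = bacteria with antibiotic; twin plates without the antibiotic show which effects depend on it; some results filed as inactive read as strong as hits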
Arbovirus anti repeat: also measured in Arbovirus anti; calls as there; inhibition, %; measured here: 10K subset replicate screen; many hits read low in the repeat;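 first of two repeat runs on a subset; 0% = infected and 100% = uninfected wells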
* hit, by the source's call; ? = inconclusive; / = no result given. An excerpt; count on the stated rates, not on these rows.

SMILES | Mtb H37Rv | RecA splice inh | Arbovirus anti | YopH PTP inh | Mtb bLac sens | others
CCc1nc2ccccc2nc1N1CCN(S(=O)(=O)c2ccc(Cl)cc2)CC1 | 1% | 0.0 | / | / | 4
NC(N)=N/N=C/c1ccc(Cl)cc1Cl | / | 2.4 | / | / | 0
O=C(Nc1cc(S(=O)(=O)N2CCOCC2)ccc1N1CCCCC1)c1cc(-c2ccccn2)nc2ccccc12 | -5% | -0.5 | -7 | / | 15
Cn1c(SCC(=O)NCc2ccc3c(c2)OCO3)ncc(C(=O)Nc2ccc(F)cc2)c1=O | / | -2.0 | / | / | 5
O=C(N1CCOCC1)N(Cc1ccco1)CC1CCCO1 (stereo unspecified) | -1% | -0.2 | 6 | -52 | 6
O=C(NC(=S)Nc1cccc(S(=O)(=O)NC2=NCCC2)c1)c1cc(-c2ccco2)nc2ccccc12 | -9% | -0.5 | / | / | -2
CC(=O)c1cc2c(cc1NC(=O)CN1Cc3ccccc3C1=O)OCO2 | / | -0.9 | / | / | ?
COc1ccc(NC(=O)Cc2nnc(SCC(=O)c3ccccc3)n2C)cc1 | / | 2.6 | / | / | 5
COc1ccc(CN(C(=O)c2snc(C(N)=O)c2N)C(C)C(=O)NCc2ccc(F)cc2)cc1 (stereo unspecified) | / | 9.0 | / | / | 3
O=C(COC(=O)c1ccccc1Cl)Nc1ccc2[nH]c(=O)[nH]c2c1 | / | -2.5 | / | / | 0
NC(=O)C1=C[C@H](c2ccc(Br)cc2)C[C@H](OCc2ccc(CO)cc2)O1 | 3% | 6.2 | 6 | / | 2
COC(=O)CCS(=O)(=O)c1ccc(Cl)c(Cl)c1 | -5% | -3.2 | 3 | -14 | 2

Random excerpt: 6 entries already listed
SMILES | Mtb H37Rv | RecA splice inh | Arbovirus anti | YopH PTP inh | Mtb bLac sens | others
COC(=O)CCS(=O)(=O)c1ccc(Cl)c(Cl)c1 | -5% | -3.2 | 3 | -14 | 2
O=C(COC(=O)c1ccccc1Cl)Nc1ccc2[nH]c(=O)[nH]c2c1 | / | -2.5 | / | / | 0
NC(N)=N/N=C/c1ccc(Cl)cc1Cl | / | 2.4 | / | / | 0
CC(=O)c1cc2c(cc1NC(=O)CN1Cc3ccccc3C1=O)OCO2 | / | -0.9 | / | / | ?
CCc1nc2ccccc2nc1N1CCN(S(=O)(=O)c2ccc(Cl)cc2)CC1 | 1% | 0.0 | / | / | 4
COc1ccc(NC(=O)Cc2nnc(SCC(=O)c3ccccc3)n2C)cc1 | / | 2.6 | / | / | 5

Further entries follow.
SMILES | Mtb H37Rv | RecA splice inh | Arbovirus anti | YopH PTP inh | Mtb bLac sens | others
O=C(O)c1c[nH]c(=S)n1-c1ccc(F)cc1 | -6% | -2.4 | 1 | -53 | -17
COc1cccc(-c2nn(-c3ccc(C)cc3)cc2C(=O)NCC2CCCO2)c1 (stereo unspecified) | / | 2.8 | / | / | 7
CC(C)CCOCC1CC2(CC(C)(c3csc(N)n3)OC2=O)C(=O)O1 (stereo unspecified) | -2% | -1.1 | -1 | 20 | -8
CCC(NC(=O)CCc1nnc(-c2cc(C)on2)o1)C12CC3CC(CC(C3)C1)C2 (stereo unspecified) | / | 1.7 | / | / | 5
O=C(CSc1nc(=O)n(CCCN2CCOCC2)c2c1CCCC2)Nc1ccc(F)c(F)c1 | / | 3.7 | / | / | -1
CC(=O)N(/N=C1\Sc2ccccc2C1=O)c1ccccc1 | 9% | / | -9 | -25 | /
Cc1c(-c2ccccc2)nc(N)c(C#N)c1-c1cccs1 | 9% | -1.0 | 0 | 7 | 4
Cc1ccc(NC(=O)c2cc(C(=O)c3cc(Cl)ccc3O)cn(-c3ccc(C)cc3)c2=O)cc1 | 63% | -12 | 11 | -16 | 37
COC(C#CCCN(C)C)(c1ccccc1)c1ccccc1 | 2% | -0.1 | -13 | -22 | 1
CCOC(=O)CNC(=O)c1sc(NC(=O)c2ccccc2)nc1C | -13% | / | -30 | -14 | -2
C=CCNc1nc2ccccc2nc1NS(=O)(=O)c1ccc(Cl)cc1 | / | -3.5 | / | / | 4
CC(C)c1nc(SCC(=O)c2ccc(F)cc2)c2ccccc2n1 | 2% | -0.4 | 15 | / | 0
CC(C)n1c(O)c(C=NCc2ccccc2)c(=O)[nH]c1=S | -5% | -1.5 | / | / | 9
CCn1c(=NC(=O)COc2ccccc2)sc2cccc(F)c21 | 3% | -2.4 | / | / | -1
COc1ccc(N2CC(C(=O)N/N=C/c3ccc(C)cc3)CC2=O)cc1 (stereo unspecified) | -7% | 2.3 | -16 | / | -1
COc1ccc(OC)c(Nc2ncnc3ccc(Br)cc23)c1 | / | -14 | / | / | 0
Cc1cccc(NC(=O)Cn2cnc3ccc(S(=O)(=O)N4CCC(C)CC4)cc3c2=O)n1 | -10% | -2.2 | 14 | -17 | -8
Cc1cccc(-c2nnn(CC/C(N)=N/O)n2)c1 | 5% | -4.2 | 1 | -4 | -13
CNC(=O)CN1C(=O)NC(Cc2c[nH]c3ccccc23)C1=O (stereo unspecified) | -5% | 1.2 | / | / | -4
CCN1C(=O)c2ccc(C(=O)O)cc2C1=O | 5% | -0.6 | 3 | -3 | 0
COc1ccc(C(C)=O)cc1COC(=O)CCNS(=O)(=O)c1ccc(C)cc1 | / | 0.4 | / | / | 1
Cc1c(-c2ccccc2)oc2c(C(=O)OCC(=O)Nc3ccc(C(N)=O)cc3)cccc2c1=O | 1% | 2.3 | -1 | -15 | 0
CN(C(=O)c1cc([N+](=O)[O-])ccc1NCc1cccnc1)c1ccccc1 | / | -1.6 | / | / | -1
CCC(Sc1nc(C)cc(C)n1)C(=O)NC1=NN=C(c2ccc(C)cc2)CS1 (stereo unspecified) | 4% | 6.0 | -19 | -23 | 7
COc1cc(/C=N/NC(N)=O)ccc1OCC(=O)Nc1ccc(C)c(C)c1 | 12% | -3.9 | 3 | -12 | 5
O=C(COC(=O)c1ccc(Cl)nc1)NCc1ccc2c(c1)OCO2 | 4% | 0.5 | 2 | -21 | -1
COc1ccc(/C=C/C(=O)NCCCN2CCOCC2)cc1 | / | -0.7 | / | / | 8
COC(=O)c1ccc(CSc2nc3c(cnn3-c3ccc(F)cc3)c(=O)[nH]2)o1 | 5% | / | 7 | -10 | 4
Cc1ccccc1N(C(=O)CNC(=O)c1cccs1)C(C(=O)NC1CCCC1)c1ccncc1 (stereo unspecified) | / | 0.6 | / | / | 4
COC(=O)Cc1c(C)nc2nc(Cc3ccccc3)[nH]n2c1=O | 1% | -2.5 | 1 | -7 | -2
CC(=O)N1CCCN(C(=O)c2cc(COc3c(F)cccc3F)on2)CC1 | / | 0.8 | / | / | ?
Cn1nnc(CC[N+](C)(C)C)n1 | -1% | 0.2 | / | / | 2
CN(CCC1CCCCO1)C(=O)c1cc(COc2ccc(F)cc2F)on1 (stereo unspecified) | / | 1.2 | / | / | ?
COC(=O)c1cc(C(=O)OC)n(Cc2ccc(C)cc2)c1C | 0% | 5.9 | -1 | / | -5
COc1ccc(-c2nn3cnnc3s2)cc1OC | -5% | -0.2 | 4 | -16 | ?
Cc1cc(C)nc(N/N=C/c2ccc3c(c2)OCCO3)n1 | -9% | -70 | 0 | / | -1
C=CCOC(=O)C1=C(C)NC(SCC(=O)N(CC)CC)=C(C#N)C1c1ccco1 (stereo unspecified) | 0% | / | -7 | -19 | -3
O=C(NCCCn1ccnc1)c1cn(-c2ccccc2)nc1-c1ccccc1 | -12% | 0.7 | -2 | 2 | 3
O=C(Nc1ccc(S(=O)(=O)N2CCOCC2)cc1)c1ccccc1Br | / | 0.9 | / | / | -7
NC(=O)c1ccccc1N=Cc1ccc2ccccc2c1 | 1% | -2.6 | -9 | -18 | -2
Cc1cc(C)nc(N/N=C/c2sccc2C)n1 | 5% | 1.8 | 8 | / | 3
CCC(=O)Nc1ccc2c(c1)nc(CN1CCCCC1)n2C | 2% | 8.8 | -5 | / | 3
O=C(COC(=O)Cn1cnc2ccccc21)NCCc1ccccc1 | -9% | 0.2 | 3 | -38 | -13
C=C(C)CNC(=S)N1CCN(C(c2ccccc2)c2ccccc2)CC1 | 6% | -1.0 | 0 | / | -3
CCOC(=O)C(=CNc1ccc(C#N)cc1)C(=O)OCC | 5% | 0.4 | 4 | / | -5
CCN(c1ccccc1)S(=O)(=O)c1ccc(OC)c(NS(=O)(=O)c2cccs2)c1 | 4% | -7.0 | 11 | / | 0
CC1(C)CC(=O)C=C(NC2CC(C)(C)NC(C)(C)C2)C1 | -6% | / | 10 | -55 | -6 | Arbovirus anti repeat=2
Nc1ccc2nc3c(c(Cl)c2c1)CCCC3 | ? | -4.9 | / | / | 7
CC1CCc2sc(C(=O)N=Nc3c(O)[nH]c4ccccc34)cc2C1 (stereo unspecified) | 9% | 1.8 | 17 | -8 | -9
CC(=O)Nc1ccc(OCC(=O)NCc2ccc3c(c2)OCO3)cc1 | 3% | 0.4 | 3 | / | -4
CC(=O)Nc1ccc(Br)cc1C(=O)C(=O)O | -3% | 1.2 | 2 | 3 | 6
O=C(CN1CCN(c2ccc(F)cc2)CC1)Nc1ccc(F)c(F)c1 | -1% | 1.3 | 3 | -43 | 2
O=S(=O)(Nc1nc(-c2sccc2Cl)cs1)c1cc(Cl)ccc1Cl | -6% | 27 | 4 | -18 | ?
CC1(C)Cc2ccccc2-c2nc3ccccc3c(=O)n21 | 6% | 6.8 | 0 | -25 | 31
COc1ccc(C#Cc2ccc3c(c2)c(=O)c2ccccc2n3C)cc1 | / | -10.0 | / | / | 55
COc1ccc2c(c1)CC/C(=C\c1ccc(OC)c(Cn3nc(C)cc3C)c1)C2=O | 2% | 4.1 | -16 | -7 | 1
O=C(CC1C(=O)NCCN1C(=O)Nc1ccccc1)Nc1ccc2c(c1)OCO2 (stereo unspecified) | 0% | -0.2 | 3 | -38 | -3
BrCCOCCOc1ccc2ccccc2c1 | 1% | 2.2 | 7 | -5 | -2
O=C(NCCCCc1ccccc1)c1ccccc1Cl | -5% | 2.5 | -9 | / | 1
Cc1ccccc1CNC(=O)C(=O)Nc1nccs1 | -3% | 0.5 | 16 | / | 2
Continuation.
SMILES | Mtb H37Rv | RecA splice inh | Arbovirus anti | YopH PTP inh | Mtb bLac sens | others
CC(=O)N1C(=O)NC2=C(C(=O)CCC2)C1c1cccc([N+](=O)[O-])c1 (stereo unspecified) | / | 2.1 | / | / | -8
Cc1ccc(S(=O)(=O)CC(=O)Nc2ccc(F)c(F)c2F)cc1 | -9% | 1.7 | / | / | 0
C=CCN(CC=C)C(=O)c1cccc(OC2CCN(S(=O)(=O)N(C)C)CC2)c1 | / | -1.5 | / | / | -9
CC1=C(C(=O)OCC2CCCO2)C(c2coc3ccccc3c2=O)C2=C(CC(C)(C)CC2=O)N1 (stereo unspecified) | 2% | 0.3 | 3 | / | -8
O=C(CNC(=O)c1ccccc1Cl)N/N=C/C=C/c1ccccc1 | -2% | 0.8 | -4 | -45 | 7
Cc1ccccc1OCC(=O)Nc1ccccc1NC(=O)c1ccco1 | / | 4.8 | / | / | 10
Cc1ccc(C)c(OCCn2cc(C(=O)O)c3ccccc32)c1 | 4% | 3.5 | 14 | / | 9
Cc1cc(C)c2c(N)c(C(=O)Nc3ccccc3Br)sc2n1 | / | -15 | / | / | 0
CCCCc1nc(SCC(=O)Nc2ncccn2)n[nH]1 | / | -3.0 | 11 | -2 | -12
Cc1cc(C)nc(Nc2n[nH]c(Cc3ccccc3)n2)n1 | -6% | -1.3 | 4 | -14 | /
Cc1ccn2c(C(=O)N/N=C\c3cccs3)c(C)nc2c1 | -4% | -2.4 | 8 | -18 | -14
CCCCC1CCC(C(=O)Nc2ccc(S(=O)(=O)Nc3nccs3)cc2)CC1 (stereo unspecified) | ? | 1.3 | -9 | -6 | 99
O=C(NCCN1CCCCCC1)C1CC(=O)N(CCc2ccccc2)C1 (stereo unspecified) | -9% | 2.3 | -4 | -41 | -7
COc1ccc(OCC(=O)NN2Cc3ccccc3C2=N)cc1 | 0% | -0.1 | 8 | -6 | -7
CC(=O)N1CCCc2ccc(NS(=O)(=O)c3ccc(C)cc3)cc21 | / | 3.8 | / | / | -7
S=C(Nc1ccc(Cl)cc1)N(CCCN1CCOCC1)Cc1ccco1 | -3% | -0.6 | 1 | -27 | 1
N#Cc1ccc(OCC(=O)OCC(=O)Nc2ccc(N3CCOCC3)cc2)cc1 | / | -5.7 | / | / | -8
O=[N+]([O-])c1ccc(N/N=C2\CC3CC=CC23)cc1 (stereo unspecified) | ? | 1.8 | -29 | / | 97
O=C(CNC(=O)C1COc2ccccc2O1)N/N=C\c1cccc(O)c1 (stereo unspecified) | / | -3.2 | -8 | -23 | 4
